NPYLR7 agonist = activates Aedes aegypti NPYLR7 receptor | HEK293T NPYLR7/Galpha15, GCaMP6s calcium fluorescence | activation, % at 10 µM | 270,000 tested, 0.15% active | AID 1259423; in the data active means activation above about 40%;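 further: 0% = vehicle and 100% = reference agonist at the receptor; some compounds past the cut are filed as inactive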
NPYLR7 agonist max-min = further read-out of NPYLR7 agonist, marked with its call; activation, %; measured here: Max-Min RFU normalised activation; some inactives read as strong as hits;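 span of the calcium signal over five minutes; 0% = vehicle and 100% = native peptide agonist; compound fluorescence can raise it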
An asterisk follows results filed as active; & = joins results of further samples.

Structure | NPYLR7 agonist | NPYLR7 agonist max-min
O=C(Nc1ccc(Br)cn1)C1CC1c1cccc(F)c1 (stereo not given) | -15.4 | -20.9
Cc1ncsc1CCN(C)C(=O)Cn1c(C)nc2ccccc21 | 21.7 | 12.5
CN(Cc1ccccc1)c1nc(N)c([N+](=O)[O-])c(NCC2CCCO2)n1 (stereo not given) | 3.0 | 3.0
Cc1cccc(C(=O)NC(=NCCN2CCCC2)OCC(C)C)c1 | 15.3 | 10.3
COc1ccc(C)cc1NC(=O)CC1CSc2nc3c(cnn3-c3ccccc3)c(=O)n21 (stereo not given) | -1.3 | -4.3
COc1cn(CC(=O)Nc2cc(C)ccc2C)c(CN2CCCCCC2)cc1=O | 6.0 | 4.6
O=C(Cn1cnnn1)Nc1ccc(Br)c(C(F)(F)F)c1 | -0.9 | -2.3
Cc1cccc2c(=O)n(CCN(C)C)c(=S)[nH]c12 | 20.1 | 10.6
COc1ccc(-c2nc3ccccn3c2NC(=O)C(C)Cl)cc1 (stereo not given) | -4.2 | 0.4
Cc1cc(C)n(CC(C)n2cnc3sc4c(c3c2=O)CCNC4)n1 (stereo not given) | -3.8 | -10.0
Cc1sc2nc(-c3cccs3)nc(Oc3cccnc3[N+](=O)[O-])c2c1C | 2.4 | 3.2
CC1=NOC(C)(C(=O)N2CCC3(CC2)C(=O)NCCN3C)C1 (stereo not given) | 2.6 | 2.4
Cc1ccc2c(NC(=O)c3ccc(Cn4ccnc4)cc3)cccc2n1 | -3.3 | -5.8
COc1ccc(C(=O)N=Nc2c(O)n(CN(C)C)c3ccccc23)cc1 | 3.3 | 2.4
O=C1NCc2ccc(NC(=O)c3sccc3OC(F)F)cc21 | -5.3 | -5.3
O=C(Nc1c(F)cccc1F)N1CC(=O)N2CCc3c(F)cccc3C2C1 (stereo not given) | 1.5 | -0.1
Cc1nc2ccc(C(=O)N3CCC(CO)(CCCc4ccccc4)CC3)cc2[nH]1 | 7.0 | 4.7
CCOC(=O)C1(C)CCCCCN1C(=O)c1ccc(OC)c(F)c1 (stereo not given) | 0.6 | -1.0
OC[C@H]1CCN(c2ncccc2Cl)C[C@@H]1O | 28.4 | 20.5
COC(=O)C1(C(O)C(=O)c2ccc(C)cc2C)CCCCC1 (stereo not given) | -2.4 | -3.7
O=C(Cc1c(Cl)cccc1Cl)NCc1ccccc1F | 2.2 | 0.6
NC1C2CN3CCN(C2)CC1(Cc1ccccc1)C3 (stereo not given) | -1.3 | -3.2
C=CCSc1nc(N)c(C#N)c(CC)c1C#N | -2.4 | -4.8
O=C(Nc1ccccc1-c1nc2cc([N+](=O)[O-])ccc2o1)C1CCC1 | 26.9 | 27.6
COCCNC(=O)CSc1nnc(NC2CC2)s1 | 3.1 | 3.0
O=C(CN(Cc1ccco1)Cc1cccs1)N1CCNC1=O | -0.2 | 0.7
CCSc1nc2ccc(NC(=O)CSc3nnc(C)s3)cc2s1 | -2.4 | -9.8
CCCCOC(=O)CN1C(=O)NC2(CCC(C)CC2)C1=O (stereo not given) | 2.3 | 2.3
CC(=O)N1CCCN(Cc2csc(Nc3ccc(C)c(C)c3)n2)CC1 | 3.2 | -0.9
CCCCCCCC(=O)N(CCCOCC)Cc1nc(C(=O)OCC)cs1 | -4.3 | 2.8
CC(=O)CSc1nc(C23CC4CC(CC(C4)C2)C3)cc(C)c1C#N | 9.8 | 6.0
COc1ccc(S(=O)(=O)N2CCN(C)CC2)cc1-c1nnc2c3ccccc3c(C)nn12 | -17.1 | -24.2
CN1CCCCC1(C)C(=O)NCc1cccs1 (stereo not given) | -0.6 | -3.4
COc1ccc(C)cc1CN(C)S(=O)(=O)c1ccc2c(c1)OCCO2 | -1.9 | -3.8
Cc1ccc([N+](=O)[O-])cc1N=C(c1cccc(Br)c1)N1CCOCC1 | -6.4 | -8.3
Cc1cc(=O)n2c(n1)SCC2CC(=O)Nc1ccc(C(C)C)cc1 (stereo not given) | -0.3 | -1.2
CCNC(=O)N(CC(=O)N(Cc1ccc2c(c1)OCO2)Cc1sccc1C)C1CCCCC1 | -3.1 | -0.5
CCN(CC1CCCN(CCc2cccc(OC)c2)C1)C(=O)c1ccncc1 (stereo not given) | 5.2 | 1.5
Cc1ccc(CNC(=O)Cn2c(C)nc3c(sc4cccc(F)c43)c2=O)cc1 | 1.6 | -2.5
O=C(NCc1ccc2c(c1)OCO2)c1ccccc1NS(=O)(=O)c1ccccc1F | -2.4 | 4.7

Retrieved one by one from above (2):
Structure | NPYLR7 agonist | NPYLR7 agonist max-min
CCN(CC1CCCN(CCc2cccc(OC)c2)C1)C(=O)c1ccncc1 (stereo not given) | 5.2 | 1.5
COc1ccc(S(=O)(=O)N2CCN(C)CC2)cc1-c1nnc2c3ccccc3c(C)nn12 | -17.1 | -24.2

The listing continues.
Structure | NPYLR7 agonist | NPYLR7 agonist max-min
CN(Cc1ccno1)c1nc(-c2cccnc2)nc2c1cnn2C | 3.7 | 3.5
CSc1cccc(CN2CCN(Cc3cccs3)C(CCO)C2)c1 (stereo not given) | 14.5 | 7.2
O=C(c1ccc(Cl)cc1)N1CCN(c2ccc([N+](=O)[O-])c3ncccc23)CC1 | -1.1 | -14.8
O=C(Nc1ccccn1)NC1CC(=O)N(c2ccc3c(c2)OCCO3)C1 (stereo not given) | -6.3 | 1.3
CC(C)OCCCNC(=O)CCc1cc2c(n1-c1ccc(Cl)cc1)-c1ccccc1OC2 | 3.1 | 2.5
CC(C(=O)NCC1CCCCC1)n1cnc2c1c(=O)n(C)c(=O)n2C (stereo not given) | 11.0 | 6.8
CCOc1ccccc1CN1CCN(Cc2ccccc2Cl)CC1CCO (stereo not given) | 4.2 | -0.5
C=CCn1c(C)c(N2CCOCC2)c(C)c1C(=O)Nc1cc(C)ccc1OC | 18.7 | 14.7
CCN1C(=O)NC(c2ccc(Cl)cc2Cl)C2=C1CN(CC(=O)NCCOc1ccccc1)C2=O (stereo not given) | -2.6 | 4.6
COc1ccc(CNC(c2ccc(Cl)cc2)c2nccn2C)cc1C (stereo not given) | 9.0 | 3.6
Cc1ccc(SCC(=O)NC(C)c2ccc(-n3cncn3)cc2)c(C)c1 (stereo not given) | 16.1 | 6.5
O=C(NCc1ccccc1)c1cc(C2COCCN2C(=O)OCCF)on1 (stereo not given) | 4.5 | 1.3
CC(C)C1CN(C(=O)CCc2cccnc2)CCCN1CC1CC1 (stereo not given) | 1.7 | 18.9
Cc1ccc(C(=O)Nc2cc(=O)n(C)c(=O)n2C)cc1 | 9.5 | 11.8
Fc1ccc(Nc2nc(NCc3ccc4c(c3)OCO4)nc3[nH]ncc23)cc1 | 9.0 | 6.0
N#Cc1cc2c(cc1C#N)-n1c(-c3ccccc3)nnc1-c1ccccc1O2 | 1.2 | -0.3
CNC(=O)NC(=O)CSc1c(C)cc(C)cc1C | 0.7 | 7.8
Cc1ccc(S(=O)(=O)NC(=O)C2(C)CCN2C(=O)C2(c3ccc(Cl)cc3)CCC2)cc1 (stereo not given) | 2.7 | 2.5
CCOc1ccc(C(=O)Nc2cc(C)nn2-c2nc(C)cc(=O)[nH]2)cc1OCC | 19.9 | 10.0
CC1ON=C(c2ccc(N(C)C)cc2)N(Cc2ccc(S(C)(=O)=O)cc2)C1=O (stereo not given) | 4.3 | 2.4

The closing 5 compounds of the part above open the next one:
Structure | NPYLR7 agonist | NPYLR7 agonist max-min
N#Cc1cc2c(cc1C#N)-n1c(-c3ccccc3)nnc1-c1ccccc1O2 | 1.2 | -0.3
CNC(=O)NC(=O)CSc1c(C)cc(C)cc1C | 0.7 | 7.8
Cc1ccc(S(=O)(=O)NC(=O)C2(C)CCN2C(=O)C2(c3ccc(Cl)cc3)CCC2)cc1 (stereo not given) | 2.7 | 2.5
CCOc1ccc(C(=O)Nc2cc(C)nn2-c2nc(C)cc(=O)[nH]2)cc1OCC | 19.9 | 10.0
CC1ON=C(c2ccc(N(C)C)cc2)N(Cc2ccc(S(C)(=O)=O)cc2)C1=O (stereo not given) | 4.3 | 2.4
CCOC(=O)N1CCC(NC(=O)c2ccc(-n3nc(-c4cccc(C(F)(F)F)c4)cc3N)cc2)CC1 | -8.8 | -19.5
Nc1ncc(Br)cc1S(=O)(=O)Nc1cccc(F)c1 | 3.4 | -1.3
CC1(C(=O)NS(=O)(=O)c2cccc(OC(F)F)c2)CCN1C(=O)CCC1CCCC1 (stereo not given) | 5.3 | 3.3
Cc1ccccc1-c1nnc2ccc(-c3ccccc3)cn12 | -2.3 | -11.8
O=C(CCCN1CCOCC1)N1[C@H]2CCNC[C@@H]1CC2 | 3.5 | 1.2
CC(C)c1ccc2nc(C3CCCS3)[nH]c(=O)c2c1 (stereo not given) | -23.3&-1.4 | -20.9&-4.0
O=C(NCc1ccco1)c1cc(-c2ccco2)on1 | -2.0 | -3.1
c1nc(NCCC2CCCOC2)cc(N2CCCCC2)n1 (stereo not given) | 5.9 | 2.5
CCCN1CCCN(C(=O)c2ncoc2-c2ccccc2Cl)CC1 | 0.6 | 2.3
COc1ccc(Cl)cc1CN1C(=O)C(C)ON=C1c1ncccc1C (stereo not given) | 7.4 | 7.2
Cc1cccc2nc(CNC(=O)N3CC4C(C3)C4(C)C)cn12 (stereo not given) | 5.3 | 3.5
COc1ccccc1-c1nnc(SCc2ccc(Cl)c(Cl)c2)n1-c1ccccc1 | -0.4 | 2.3
Cc1nccc(-c2cccc(NC(=O)C3CC=CCC3C(=O)N3CCc4c([nH]c5ccccc45)C3)c2)n1 (stereo not given) | -9.2 | -19.6
CC(=O)Nc1ccc(NC(=O)CSc2nc(=O)n3ccc(C)cc3n2)cc1 | 0.9 | -1.3
CCNC(=O)[C@@H]1C[C@H](N)CN1C(=O)c1cccnc1SC | 7.5 | 4.3
COc1ccc(C(=O)NC(=O)CN2CCN(c3ncccn3)CC2)cc1 | 1.3 | -1.0
CCOC(=O)c1cc(-c2ccc(N3CCN(C(=O)Cc4cccc(OC)c4)CC3)cc2)n(-c2ccccn2)n1 | 24.9 | 12.3
COc1ccc(Cl)cc1-c1nc(C=Nc2ccc(C)cc2)c(O)o1 | -1.7 | -6.6
Cc1cc(C)n2nc(C(=O)OCC(=O)Nc3cccc(Cl)c3)nc2n1 | 4.0 | 2.8
CC(=O)c1oc2ccccc2c1NC(=O)COC(=O)c1ccccc1 | -0.6 | -2.5
C/C(=C\c1ccc(C(=O)O)cc1)c1ccc2c(c1)C(C)(C)CCC2(C)C | 3.7 | -22.6
Cc1nn2c(CN(C(=O)c3cccs3)c3ccccc3)nnc2c2ccccc12 | 4.7 | 2.4
COCCCC(=O)N1C(C)CC(c2ccccc2)C1C (stereo not given) | -5.4 | -5.9
Cc1cc(O)c(C(=O)O)cc1S(=O)(=O)Cl | -2.1 | -4.9
Cc1cc(NC(=O)CN(C)C(=O)/C=C/c2cc(Cl)cc(Cl)c2)no1 | 0.1 | -2.9
OCCC#Cc1ccc(CN2CCN(c3ncc(F)cn3)CC2)cc1 | 9.0 | 6.3
COc1c(F)cc(-c2cccc3c2OC(CN)C3)cc1F (stereo not given) | -4.9 | -10.4
COc1ccccc1Nc1nc(-c2cnc(N3CCCC3)nc2C)cc(=O)[nH]1 | 0.4 | -1.4
COCC(=O)N1CCN(c2cc(C)ccc2F)C(=O)C1C (stereo not given) | -14.5 | -5.9
COCCNc1ncnc2c1nnn2C | 14.1 | 8.8
Cc1ccc(C(C2Sc3nc(-c4ccco4)nn3C2=O)N2CCCC2)cc1 (stereo not given) | 2.8 | 0.8
CSC1=N/C(=C\c2ccc(C)o2)C(=O)S1 | 3.2 | -1.8
Cc1cccnc1CN1CCN(Cc2nc(-c3cnccn3)no2)CC1 | 13.6 | 5.4
Cc1ccccc1CC(C)(C)NC(=O)CCOc1cccc(C(N)=O)c1 | 2.5 | 43.0
CC(=O)NC(CC(=O)N1CCOCC1)c1ccc(C)cc1 (stereo not given) | 2.5 | 1.5
CCC(C(=O)N(CCOC)Cc1cc(NC(=O)C2CCC2)ccc1N(C)C)c1ccccc1 (stereo not given) | 7.3 | 17.1
COc1cn(CC(=O)NCC2CCCO2)c(CSc2nnnn2C)cc1=O (stereo not given) | -5.9 | -10.0
CN1CCN(C2=Nc3cc(Cl)ccc3Nc3ccccc32)CC1 | -1.1&-18.7&-5.7&7.1 | -5.6&-20.1&-8.6&-10.0
Cc1cc(C)nc(Nc2ccccc2C(=O)O)n1 | 0.1 | -1.2
CCCCc1nncn1-c1cc(C)ccc1OC | 7.0 | -4.2
O=C(C(Br)=CNc1ccc(Cl)cc1Cl)C(F)(F)F | -1.6 | -3.5
O=C1CN(C(=O)c2cn[nH]n2)C(c2ccccc2)c2ccccc2N1 (stereo not given) | 2.5 | 1.9
Cc1cc(Nc2nc(-c3ccc(Cl)s3)cs2)n(C)n1 | -0.9 | -2.7
CN(Cc1ccco1)Cc1cn(-c2ccccc2)nc1-c1ccc2c(c1)OCO2 | 0.8 | -10.7
O=C(O)c1cc(S(=O)(=O)Nc2ccc(F)cc2Br)c[nH]1 | 0.7 | -0.9
CC(=O)OC[C@H]1O[C@@H](Oc2cc(OC(C)=O)c3c(=O)cc(-c4ccc(OC(C)=O)cc4)oc3c2)[C@H](OC(C)=O)[C@@H](OC(C)=O)[C@@H]1OC(C)=O | -3.2 | -9.7
Cc1cc(C)cc(-n2c(SCC(=O)N3CCOCC3)nc3c(c2=O)SCC3)c1 | -8.6 | -10.7
CCN=c1scc(-c2cccs2)n1/N=C(\C)CC | 1.5 | -1.8
Cc1ccc(Cl)c(Oc2cc(N3CCCCCC3)ncn2)c1 | -10.3 | 2.7
CC(C)(C)c1ccc(NC(=O)CCC(=O)N2CCc3ccccc3C2)cc1 | 33.4 | 23.3

Continuation.
Structure | NPYLR7 agonist | NPYLR7 agonist max-min
CC(C)=CCC/C(C)=C/CNC(=O)c1cc(C)oc1C | -6.5 | -11.8
CCOC(=O)N1CCN(C(=O)C2=C(C)C(=O)OC23CCN(CC)CC3)CC1 | -1.7 | -2.8
CC1=CC(=NNS(=O)(=O)c2ccc(C)cc2)CC1 | -0.4 | -2.9
COCCN(CC(=O)N(CCc1ccc(OC)c(OC)c1)Cc1ccc(C)o1)C(=O)Nc1cccc(F)c1 | -6.0 | -14.8
O=c1nc2n(c3ccccc13)Cc1ccccc1-2 | 21.1 | 16.3

High-throughput results: PubChem BioAssay, Fisher Drug Discovery Resource Center

A portion of the library. The share of hits here may be higher or lower than overall.
